Screening data from PubChem BioAssay.
AmpC nodet inh: AmpC beta-lactamase inhibition, detergent-free assay; P00811; AmpC nitrocefin hydrolysis, absorbance 480 nm, no detergent; potencies from a single point are estimates; Potency, µM (series often up to 28.7 µM), without a hit: at the highest dose activity change, negative = inhibition; actives 1.8% (n = 71,000); active = falling curve, for most hits resting on a single point; inconclusive = weak or doubtful change; inactive = flat or rising curve; also: % of control where 0% means no effect; about half of the hits show no inhibition at the top dose; a quarter of the inactives give rising signals
Target sequence (P00811 whole entry, looked up): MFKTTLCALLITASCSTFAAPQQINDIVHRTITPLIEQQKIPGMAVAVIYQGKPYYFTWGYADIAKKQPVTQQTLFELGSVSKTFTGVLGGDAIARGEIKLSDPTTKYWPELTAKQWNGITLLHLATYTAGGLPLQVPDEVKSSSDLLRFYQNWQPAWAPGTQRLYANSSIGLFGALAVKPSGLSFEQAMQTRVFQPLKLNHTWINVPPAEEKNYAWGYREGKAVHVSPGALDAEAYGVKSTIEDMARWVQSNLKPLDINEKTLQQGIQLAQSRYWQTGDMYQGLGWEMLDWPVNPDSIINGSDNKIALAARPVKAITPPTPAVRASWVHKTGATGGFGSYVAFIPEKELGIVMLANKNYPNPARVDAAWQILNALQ
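Enzyme, pH 7.0 phosphate. Compound titrations were pre-incubated with AmpC for 15 min at room temperature before nitrocefin (stock 800 uM) addition; product formation was recorded at 480 nm every 20 s for 4 min.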
The depositor's hits bear a star; & = joins results of further samples; [ ] = remark or other dose. Potency is read from the fitted curve at half-maximal effect. The list is partial; count on the stated rates, not on these rows.

| SMILES | AmpC nodet inh |
| --- | --- |
| COc1ccc(C2c3c(oc4ccccc4c3=O)C(=O)N2Cc2ccncc2)cc1OC (stereo not drawn) | 40.7% |
| Cc1cc(C)nc(N2CCCC(C(=O)Nc3ccc4c(c3)OCCO4)C2)n1 (stereo not drawn) | -1.1% |
| C/C=C/Cn1c(Br)nc2c1c(=O)[nH]c(=O)n2C | -3.7% |
| COc1ccc(C)cc1-n1nnnc1SCC(=O)c1ccc2c(c1)OCCO2 | -10.6% |
| COCCSc1ccccc1C(=O)NCCCn1ccnc1 | -2.1% |
| O=C(NCc1cccnc1)NC1CCCN1S(=O)(=O)c1ccc(Cl)cc1 (stereo not drawn) | 9.1% |
| Cc1ccc2c(c1)NCC(C(=O)NC1CCC(C)CC1)O2 (stereo not drawn) | 30.3% |
| COC(=O)C1=C(C)NC(=O)NC1c1cn(-c2ccccc2)nc1-c1cccs1 (stereo not drawn) | 34.2% |
| CN1CCN(S(=O)(=O)c2ccc(NC(=O)c3ccc(Br)s3)cc2)CC1 | 34.4% |
| O=C1/C(=C\c2ccccc2)C[C@@]2(O)[C@H]3Cc4ccc(O)c5c4[C@@]2(CCN3CC2CC2)[C@@H]1O5 | 34.4% |
| O=C1c2oc3ccc(Cl)cc3c(=O)c2C(c2cccnc2)N1Cc1ccco1 (stereo not drawn) | -6.0% |
| Cc1ccc(Nc2nc(C(=O)N3CCC(C(=O)N4CCN(C)CC4)CC3)cs2)cc1 | 47.7% |
| O=C(NCc1cccs1)C1CCCN(c2nc3ccccc3o2)C1 (stereo not drawn) | 30.0% |
| CCC1Oc2ccc(C)cc2N(CC(=O)NCCC2=CCCCC2)C1=O (stereo not drawn) | 34.0% |
| Fc1ccc2[nH]c3c(N4CCN(c5ccccc5)CC4)ncnc3c2c1 | -14.1% |
| Cc1nc(S(=O)(=O)N2CCOCC2)c(C#N)c(C)c1Cl | 0.3% |
| CC1(C)CC(=O)C=C(Nc2ccccc2O)C1 | -4.8% |
| COc1ccc(-c2cc(C(F)(F)F)n3nc(C(=O)N4CCC5(CC4)OCCO5)cc3n2)cc1OC | 122.7% |
| CCCCCOC(=O)Cn1c(N2CCOCC2)nc2c1c(=O)[nH]c(=O)n2C | 13.0% |
| CCOC(=O)c1sc(=NC(=O)c2cc(OC)c(OC)c(OC)c2)n(C)c1C | 60.9% |
| CCn1c(CSc2nnc(-c3ccoc3C)n2C)nc2cc(S(=O)(=O)N(C)C)ccc21 | 29.4% |
| COCC(=O)Nc1nc(-c2ccccc2)ns1 | -4.3% |
| Cc1cc(C(F)(F)F)c(C#N)c(SCC(=O)NC(C)(C)C)n1 | -0.6% |
| NC(=O)c1ccsc1NC(=O)CSc1nc2ccccc2c(=O)n1CCCO | 48.0% |
| O=S(=O)(c1ccc(Oc2ccc(S(=O)(=O)N3CCOCC3)cc2)cc1)N1CCOCC1 | 107.7% |
| Cc1ccc(Cn2c(NCCc3ccccc3)nc3c2c(=O)n(C)c(=O)n3C)cc1 | 38.5% |
| O=C(CC(=O)c1cc(Cl)ccc1O)c1ccccc1 | -2.4% |
| c1ccc2c(N3CCCCC3)nc(N3CCCC3)nc2c1 | 22.1% |
| Cc1ccc(C)c(NS(=O)(=O)c2c(C)ccc3nsnc23)c1 | 2.0% |
| CC(Nc1cc(=O)n(C)c(=O)[nH]1)c1ccccc1 (stereo not drawn) | -9.5% |
| CC(C)(C)N=C1SCC(C)(/C=N/O)S1 (stereo not drawn) | -16.1% |
| CC(C)(C)NC(=O)CN(Cc1cccs1)C(=O)c1csnn1 | -1.1% |
| COc1ccc(N(CC(=O)N2CCN(C)CC2)S(=O)(=O)c2ccccc2)cc1OC | 6.6% |
| O=c1c(-c2ccc(F)cc2)nc2cnc(N3CCOCC3)nc2n1Cc1ccc(F)cc1 | 3.5% |
| O=C(Nc1cccc2c1CCCC2)C1CCN(c2nnnn2-c2ccccc2)CC1 | 41.8% |
| COc1cccc(N(CC(=O)NC(C)(C)C)C(=O)C2CSC(=O)C2)c1 (stereo not drawn) | 9.2% |
| CCN(CCNC(=O)c1cccc(N2CCCC2=O)c1)c1ccccc1 | 19.8% |
| COC(=O)Cc1[nH]nc2c1C(c1cccc(OC)c1OC)C(C#N)=C(N)O2 (stereo not drawn) | 2.2% |
| COc1ccc(C)cc1NC(=O)CN1CCN(c2ccc(F)cc2)CC1 | 113.8% |
| CC1=C(C(=O)OCc2ccccc2)C(c2ccco2)C2=C(CC(C)(C)CC2=O)N1 (stereo not drawn) | 6.0% |
| CCCCn1c2c(c(=O)n(C)c1=O)C(CC(=O)OCC(=O)Nc1cccc(C(F)(F)F)c1)C(=O)N2 (stereo not drawn) | 19.7% |
| CCC(Cc1ccccc1)NC(=O)CN1C(=O)CSc2ncccc21 (stereo not drawn) | 1.8% |
| CC1(c2ccccc2)NC(=O)N(CC(=O)NC(=O)NC2CCCC2)C1=O (stereo not drawn) | 26.8% |
| Cn1c(=O)cc(OCC(=O)NC2CCCCC2)c2ccccc21 | 35.0% |
| CN1CCN(S(=O)(=O)c2ccc(-c3ccc(S(=O)(=O)N4CCN(C)CC4)cc3)cc2)CC1 | -3.3% |
| COc1cc(C(=O)NCCc2ccc(S(N)(=O)=O)cc2)cc(OC)c1OC | -10.0% |
| Cc1nnc(N(Cc2ccco2)C(=O)c2cccc(C#N)c2)s1 | -10.5% |
| C=CCOC(=O)CCCCCCCC | -8.9% |
| CC(C)NC(=O)Cn1c(SCC(=O)N2CCCc3ccccc32)nc2ccccc21 | 14.3% |
| COc1ccc(Br)cc1C(=O)Nc1ccc(O)cc1 | -12.1% |

Following part:
| SMILES | AmpC nodet inh |
| --- | --- |
| c1cncc(CNC2=NCCCCC2)c1 | -14.6% |
| COC(=O)c1ccc(OCc2nc(N)nc(N3CCOCC3)n2)cc1 | 10.2% |
| Cn1cc(-c2nc3cnc(Oc4ccccc4)nc3n(Cc3cccs3)c2=O)c2ccccc21 | -8.3% |
| CCc1cccc2c(=O)c(C(=O)N3CCCCCC3)c[nH]c12 | 10.3% |
| COC(=O)c1oc2nc(C)cc(C)c2c1N | -2.3% |
| NC(=O)NC(c1ccccc1)c1ccccc1F (stereo not drawn) | 10.3% |
| Cc1cc(C)c(C(=O)CSc2nnc(-c3ccccc3Br)o2)cc1C | -10.8% |
| CC(c1ccco1)N(C(=O)C12CC3CC(CC(C3)C1)C2)c1ccccn1 (stereo not drawn) | 45.8% |
| CN(C)CCN1C(=O)C(=O)/C(=C(/O)c2ccc(F)cc2)C1c1ccccc1F (stereo not drawn) | 0.5% |
| O=C(CCCN1CCC(n2c(=O)[nH]c3ccccc32)CC1)c1ccc(F)cc1 | 15.4%[12.8 µM] |
| Cc1cc(N2CCCC2=O)c(N)cc1N | 12.3% |
| CCOc1ccc2ccccc2c1C(=O)N1CCN(c2ccccc2)CC1 | 76.1% |
| O=C(NCCN1CCN(c2ccccc2)CC1)C1CCN(S(=O)(=O)c2cccc3nonc23)CC1 | 0.4% |
| Cc1ccc(S(=O)(=O)N(Cc2ccccc2)Cc2ccco2)cc1 | -22.6% |
| O=c1c(-c2ccc(F)c(F)c2)nc2cncnc2n1Cc1ccccc1Cl | 7.7% |
| Cc1cc(NCCCN2CCOCC2)n2c(nc3ccccc32)c1C#N | 13.0% |
| CCNC(=O)C1CC(=O)N(Cc2ccc3c(c2)OCO3)C(=Nc2ccc(OCC)cc2)S1 (stereo not drawn) | 35.6% |
| COCCCNC(=O)C1CCN(c2nc(C)cc(C)n2)CC1 | -6.3% |
| O=C(c1cccc(-c2nnc(-c3ccccc3)o2)c1)N1CCCCC1 | 54.4% |
| CC1=Nn2c(nnc2-c2ccccc2)SC1 | 5.0% |
| CC(C)NC(=O)c1ccccc1NC(=O)c1ccccc1N(C)S(C)(=O)=O | 8.9% |
| CCOC(=O)CNc1c(-c2ccc(O)cc2)nc2ccc(Cl)cn12 | 4.7% |
| COc1cc(NS(=O)(=O)c2ccc(C)cc2)c2ncccc2c1 | 13.5% |
| CCOc1ccccc1-c1nc(C(N)=O)c2[nH]c(=O)n(-c3cccc(C)c3)c2n1 | 43.8% |
| CC(=O)OC(C(=O)c1ccccc1)c1ccccc1 (stereo not drawn) | -3.9% |
| Cc1cc(C)c2c(n1)sc1c(O)cc(=O)[nH]c12 | -2.4% |
| C=C(C)OC(C)=O | -9.0% |
| COc1ccccc1CC(=O)N1CCN(c2cccc(C(F)(F)F)c2)CC1 | 83.4% |
| Cn1c(=O)c2c(ncn2CC(=O)OCC(=O)NC2CCCc3ccccc32)n(C)c1=O (stereo not drawn) | 10.9% |
| O=C(c1ccc2c3c(cccc13)CC2)N1CCN(c2ncccn2)CC1 | 71.5% |
| COC(=O)CNC(=O)Cn1cnc2sc(C)c(S(=O)(=O)N3CCC(C)CC3)c2c1=O | 7.7% |
| COc1ccc(S(=O)(=O)N2CCOCC2)c(Cl)c1Cl | 18.1% |
| CCC(C)(C)NC(=O)C(c1ccc(F)cc1)N(Cc1ccco1)C(=O)c1snc(C(N)=O)c1N (stereo not drawn) | 19.9% |
| Cc1nnc(NC(=O)CSc2nnc3scc(-c4ccc(C)c(C)c4)n23)s1 | 2.2% |
| CC(=O)Nc1nc(CC(C)C)cc2c1c(=O)oc1ccccc12 | -1.0% |
| CCOc1cc(-c2conc2N)cc(OCC)c1OCC | 5.7% |
| O=C(CN1CCN(Cc2ccccc2)CC1)Nc1ccc(Cl)cn1 | 29.0% |
| CCOc1ccc(NC(=O)CC2CC(C)(C)OC2=O)cc1 (stereo not drawn) | 11.0% |
| CC(=NCc1ccc2c(c1)OCO2)c1c(O)[nH]c(=O)[nH]c1=O | -8.6% |
| COCCCNC(=O)Cn1cc2c(n1)CCC(C)C2 (stereo not drawn) | 3.2% |
| CC(=O)Nc1cccc(N2C(=O)CC(N3CCC(C(=O)N4CCCCC4)CC3)C2=O)c1 (stereo not drawn) | 16.3% |
| CCOc1ccc2[nH]c(=O)c(C(c3nnnn3C3CCCCC3)N3CCN(CC)CC3)cc2c1 (stereo not drawn) | 94.6% |
| CCCc1cc(=O)[nH]c(SCC(=O)c2cc(C)n(CCOC)c2C)n1 | 12.9% |
| CN1C(=O)C(Cc2ccsc2)C(=O)N(C)C1=O | 3.2% |
| O=S(NC1CCCCC1)C12CC3CC(CC(C3)C1)C2 (stereo not drawn) | 49.0% |
| O=C(CSc1nc2ccccc2n1CC(=O)N1CCCC1)NCc1ccc2c(c1)OCO2 | 35.3% |
| Cc1cccc(C(=O)NCN2CCN(c3ccccc3C#N)CC2)c1 | 19.1%&0.7% |
| CS(=O)(=O)N1CCN(C(=O)c2cc(-c3ccncc3)nc3ccc(Cl)cc23)CC1 | 71.3% |
| O=C1c2ccccc2C(Nc2cccnc2)N1Cc1ccccc1Cl (stereo not drawn) | 3.98µM*[single pt active] |
| COc1cccc(-c2ccc(-c3noc(-c4ccccc4F)n3)c(OC)n2)c1 | 16.0% |

(list continues)
| SMILES | AmpC nodet inh |
| --- | --- |
| Cc1cc(C)c2c3c(c(-c4ccccc4)n2n1)c(=O)n(C)c(=O)n3C | 10.1% |
| Cc1nnc(NC(=O)C2CCN(c3cnccn3)CC2)s1 | -5.9% |
| C=C(C)CN(CC)C(=O)CSc1nc2ncc(Cl)cc2[nH]1 | -8.4% |
| O=C(O)c1cc(=O)c2ccc(Cl)cc2[nH]1 | -1.8%&3.9% |
| COC(=O)c1cccc(S(=O)(=O)N2CCC(NC(=O)NC34CC5CC(CC(C5)C3)C4)CC2)c1 | 28.8% |
| COc1cccc(C(=O)OCn2nnc3ccccc3c2=O)c1 | -2.0% |
| C=CCN(CC=C)C(=O)Cc1ccc(F)cc1 | -3.4% |
| O=C(CSc1ncccn1)NCc1ccccc1Cl | 3.7% |
| FC(F)(F)Oc1ccc(Nc2nc3ccccc3o2)cc1 | -12.6% |
| CCN1C(=O)C(O)(CC(=O)c2ccc(-n3cccc3)cc2)c2ccccc21 (stereo not drawn) | 41.9% |
| COc1ccc(OC)c(C2=NOC(C(=O)Nc3cccc(C(C)=O)c3)C2)c1 (stereo not drawn) | 33.4% |
| COc1cc(C)c(C(C)C)cc1S(=O)(=O)N1CCN(C)CC1 | 39.8% |
| CCCCn1c(N)c(C(=O)NCCN2CCOCC2)c2nc3ccccc3nc21 | 122.6% |
| O=C(O)C1CCC(CNCc2cccnc2)CC1 (stereo not drawn) | -9.1% |
| O=C1C2CC=CCC2C(=O)N1CC1CCCO1 (stereo not drawn) | -10.6% |
| O=C(OCCN1C(=O)c2ccccc2C1=O)c1cc(S(=O)(=O)N2CCOCC2)ccc1Cl | 83.5% |
| COc1ccc2c(c1)CCc1c(C(=O)N3CC4(C)CC3CC(C)(C)C4)noc1-2 (stereo not drawn) | 27.8% |
| CCOC(=O)C1CCN(C(=O)CSc2cc(=O)n(C)c3ccccc23)CC1 | 67.8% |
| CCOC(=O)N1CCN(S(=O)(=O)c2ccc(Br)s2)CC1 | 19.7% |
| CCN(CC)C(=O)C1CCN(Cc2ccc(Br)cc2)CC1 | 8.1% |

Next part, overlapping the part above by six compounds.
| SMILES | AmpC nodet inh |
| --- | --- |
| O=C1C2CC=CCC2C(=O)N1CC1CCCO1 (stereo not drawn) | -10.6% |
| O=C(OCCN1C(=O)c2ccccc2C1=O)c1cc(S(=O)(=O)N2CCOCC2)ccc1Cl | 83.5% |
| COc1ccc2c(c1)CCc1c(C(=O)N3CC4(C)CC3CC(C)(C)C4)noc1-2 (stereo not drawn) | 27.8% |
| CCOC(=O)C1CCN(C(=O)CSc2cc(=O)n(C)c3ccccc23)CC1 | 67.8% |
| CCOC(=O)N1CCN(S(=O)(=O)c2ccc(Br)s2)CC1 | 19.7% |
| CCN(CC)C(=O)C1CCN(Cc2ccc(Br)cc2)CC1 | 8.1% |
| CN(C)c1ccc(C(=C2C=CC(=[N+](C)C)C=C2)c2ccccc2)cc1 | -11.3%[5.75 µM] |
| CCOc1ccc2[nH]c(C)c(CN3CCCCC3)c(=O)c2c1 | -16.3% |
| Cn1c(C(=O)N2CCC(C(=O)N3CCC4(CC3)OCCO4)CC2)cc2sccc21 | 69.7% |
| COc1ccccc1-c1nccc(Nc2ccc(F)cc2)n1 | 48.6% |
| CCCc1cc(=O)n2[nH]c(CCc3ccccc3)nc2n1 | -6.0% |
